Screening data deposited in PubChem by Broad Institute.
HIV Env fusion = inhibitors of HIV-1 Env-driven cell-cell fusion, primary screen, HeLa-JRFL effector, CEM21 target cells, luciferase; inhibition, % at 12.3 µM; 360,000 compounds, 1.1% hits; AID 651610, 2012;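 active = mean replicate inhibition score of at least 50 and every replicate individually at or above 50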;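 also: 0% = plate neutral controls and 100% = maraviroc near 300 nM; one replicate is shown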
Yeast UUG start = modulators of yeast start codon fidelity, primary screen, whole organism, S. cerevisiae, single point, plate reader; S. cerevisiae UUG-firefly luciferase reporter, luminescence/redox ratio; activity score, % at 18.7 µM; 350,000 compounds, 0.13% hits;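 active = replicate mean at a twofold rise or more, about +100% in these data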;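 also: firefly luciferase made from a UUG start codon reports start codon fidelity; reporter light over untreated wells divided by growth signal over untreated wells; some hits fall short of that in this replicate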
* marks the source's active call; other numbers are inactive results; [ ] = dose if it differs, or a comment. The list is partial, so the mix of outcomes need not match the whole.

Yeast UUG start | HIV Env fusion | Structure
4 | 5 | C[C@H](CO)N1C[C@H](C)[C@H](CN(C)C(=O)C2CCCCC2)OCc2cnnn2CCCC1=O
25 | -8[16.7 µM] | C[C@H](CO)N1C[C@H](C)[C@H](CN(C)C(=O)Nc2ccc3c(c2)OCO3)OCCCC[C@H](C)Oc2ccc(NC(=O)c3ccccc3)cc2C1=O
-5 | -3[16.7 µM] | O=C(C[C@H]1CC[C@@H](NC(=O)NC2CCCCC2)[C@H](CO)O1)NCc1ccccc1
145* | 0[16.7 µM] | O=C(NCC[C@@H]1CC[C@H](NS(=O)(=O)c2cccc(F)c2)[C@H](CO)O1)C1CCCC1
-1 | -211[16.7 µM] | CCC(=O)N(C)C[C@H]1Oc2cc(C#CC(C)(C)O)ccc2S(=O)(=O)N([C@@H](C)CO)C[C@@H]1C
10 | -15[16.7 µM] | COc1ccc(NC(=O)Nc2ccc3c(c2)C(=O)N([C@@H](C)CO)C[C@H](C)[C@H](CN(C)C(=O)Nc2ccc4c(c2)OCO4)O3)cc1
15 | 16[16.7 µM] | C[C@@H]1CN([C@@H](C)CO)C(=O)c2cc(C#CC3(O)CCCC3)cnc2O[C@H]1CN(C)S(=O)(=O)c1cccc(F)c1
3 | 13[16.7 µM] | COc1ccc(NC(=O)N(C)C[C@H]2Oc3ccc(NC(=O)CCC(F)(F)F)cc3CC(=O)N([C@@H](C)CO)C[C@@H]2C)cc1
11 | 16[16.7 µM] | O=C(C[C@@H]1C[C@H]2c3cc(NC(=O)NC4CCCCC4)ccc3O[C@H]2[C@H](CO)O1)NCC(F)(F)F
9 | 10[16.7 µM] | C[C@H]1CN([C@@H](C)CO)C(=O)c2cc(C#Cc3ccccc3F)cnc2O[C@H]1CN(C)C(=O)C1CCC1
1 | 21[16.7 µM] | COc1ccc(S(=O)(=O)N[C@@H]2CC[C@@H](CCn3cc(-c4ccccc4F)nn3)O[C@H]2CO)cc1
4 | 22[16.7 µM] | C[C@H]1CN([C@@H](C)CO)C(=O)c2cc(C#CC3CCCC3)cnc2O[C@@H]1CN(C)C(=O)C1CCCCC1
-16 | 0[16.7 µM] | COc1ccc(NC(=O)N(C)C[C@@H]2Oc3ccc(NS(=O)(=O)c4ccc(Cl)cc4)cc3CC(=O)N([C@@H](C)CO)C[C@@H]2C)cc1
-4 | -88[16.7 µM] | C[C@H](CO)N1C[C@H](C)[C@H](CN(C)S(=O)(=O)c2ccccc2)OCCCC[C@H](C)Oc2ccc(NC(=O)C3CCCCC3)cc2C1=O
-12 | -14[16.7 µM] | CCCNC(=O)Nc1ccc2c(c1)OC[C@H](C)N(CCC)C[C@H](C)[C@H](OC)CN(C)C2=O

Further compounds follow:
Yeast UUG start | HIV Env fusion | Structure
20 | 21[16.7 µM] | COc1ccc(NC(=O)N(C)C[C@@H]2Oc3ccc(NC(=O)Cc4ccccc4)cc3C(=O)N([C@H](C)CO)C[C@H]2C)cc1
-12 | -9[16.7 µM] | C[C@H](O)C#Cc1ccc2c(c1)O[C@H](CN(C)C(=O)C1CC1)[C@@H](C)CN([C@H](C)CO)S2(=O)=O
3 | 6[16.7 µM] | N#C[C@H]1[C@H](c2ccc(-c3cccc(F)c3)cc2)[C@H](CO)N1C(=O)CN1CCOCC1
-1 | -7[16.7 µM] | C[C@@H]1CCCCO[C@@H](CN(C)C(=O)CCCN(C)C)[C@H](C)CN([C@@H](C)CO)C(=O)c2cc(NC(=O)Nc3ccc4c(c3)OCO4)ccc2O1
6 | -8[16.7 µM] | COc1ccc(CN(C)C[C@H]2OCCCC[C@H](C)Oc3ccc(NC(=O)Nc4ccc(F)cc4)cc3C(=O)N([C@H](C)CO)C[C@H]2C)cc1
9 | -3[16.7 µM] | COC(=O)C[C@H]1CC[C@H]2[C@@H](COc3ccc(NC(=O)c4ccc(F)c(F)c4)cc3C(=O)N2C)O1
1 | 17[16.7 µM] | N#C[C@H]1[C@@H](c2ccc(C#Cc3ccc(F)cc3)cc2)[C@H](CO)N1C(=O)C1CCCC1
82 | -10[16.7 µM] | O=C(CN1CCOCC1)N[C@H]1CC[C@@H](CCNC(=O)C2CCCC2)O[C@@H]1CO
25 | -56[16.7 µM] | C[C@H](CO)N1C[C@H](C)[C@@H](CN(C)S(=O)(=O)c2ccccc2)Oc2c(NC(=O)c3ccc(-c4nccs4)cc3)cccc2C1=O
-8 | -8[16.7 µM] | Cc1noc(C)c1NC(=O)N(C)C[C@H]1OCCCC[C@H](C)Oc2ccc(NC(=O)CCC(F)(F)F)cc2C(=O)N([C@H](C)CO)C[C@@H]1C
-1 | -2[16.7 µM] | CN1C(=O)c2cc(NC(=O)Nc3ccccc3F)ccc2OC[C@@H]2O[C@@H](CC(=O)O)CC[C@H]21
15 | 12[16.7 µM] | C[C@@H]1CN([C@@H](C)CO)C(=O)c2cccc(NC(=O)c3cnccn3)c2O[C@@H]1CN(C)Cc1ccc2c(c1)OCO2
18 | 7[16.7 µM] | CCC(=O)N(C)C[C@@H]1Oc2ncc(-c3ccc(C(=O)N(C)C)cc3)cc2C(=O)N([C@@H](C)CO)C[C@H]1C
0 | -7[16.7 µM] | C[C@@H]1CN([C@H](C)CO)C(=O)c2cc(-c3ccccc3F)cnc2O[C@@H]1CN(C)C(=O)C1CCOCC1
89 | -9[16.7 µM] | C[C@H](CO)N1C[C@H](C)[C@@H](CN(C)Cc2ccccc2)OCCCC[C@H](C)Oc2ccc(NC(=O)Cc3ccccc3)cc2C1=O

(further entries)
Yeast UUG start | HIV Env fusion | Structure
-4 | 16[16.7 µM] | C[C@H](CO)N1C[C@H](C)[C@H](CN(C)C(=O)Nc2cccc3ccccc23)Oc2c(NC(=O)C3CCOCC3)cccc2C1=O
-8 | 2[16.7 µM] | CCc1cnc(N2[C@H](C#N)[C@H](c3ccc(C#CCC4CCCC4)cc3)[C@H]2CO)s1
-4 | 71*[16.7 µM] | O=C(C[C@H]1CC[C@@H](NC(=O)c2cccc(F)c2)[C@@H](CO)O1)NCc1ccc(Oc2ccccc2)cc1
-2 | -19[16.7 µM] | C[C@H](CO)N1C[C@H](C)[C@@H](CN(C)S(=O)(=O)c2cn(C)cn2)Oc2c(NC(=O)C3CC3)cccc2C1=O
-8 | -13[16.7 µM] | C[C@@H]1CCCCO[C@@H](CN(C)Cc2ccc(C(=O)O)cc2)[C@@H](C)CN([C@@H](C)CO)C(=O)c2cc(NS(=O)(=O)c3cn(C)cn3)ccc2O1
-10 | -7[16.7 µM] | O=C(C[C@@H]1C=C[C@H](NS(=O)(=O)c2ccccc2)[C@H](CO)O1)NCc1ccncn1
-6 | 18[16.7 µM] | O=C(C[C@@H]1CC[C@@H](NC(=O)Nc2cc(F)ccc2F)[C@@H](CO)O1)Nc1ccc(-c2ccccc2)cc1
-2 | -28[16.7 µM] | C[C@H](CO)N1C[C@H](C)[C@@H](CN(C)C(=O)Nc2ccc(F)cc2)OCCCC[C@H](C)Oc2ccc(NS(=O)(=O)c3ccccc3)cc2C1=O
13 | 11[16.7 µM] | Cc1ccc(S(=O)(=O)N(C)C[C@H]2OCCCC[C@H](C)Oc3ccc(NS(=O)(=O)c4ccc(F)cc4)cc3C(=O)N([C@@H](C)CO)C[C@H]2C)cc1
-2 | 8[16.7 µM] | C/C=C/c1cnc2c(c1)C(=O)N([C@@H](C)CO)C[C@H](C)[C@@H](CN(C)S(=O)(=O)c1ccccc1F)O2
4 | -18[16.7 µM] | C[C@@H]1CCCCO[C@@H](CN(C)C(=O)NC2CCCCC2)[C@@H](C)CN([C@@H](C)CO)C(=O)c2cc(NC(=O)Cc3ccccc3)ccc2O1
10 | -16[16.7 µM] | C[C@H]1CCCCO[C@H](CN(C)S(=O)(=O)c2cn(C)cn2)[C@@H](C)CN([C@@H](C)CO)C(=O)c2cc(NC(=O)Nc3ccccc3)ccc2O1
-7 | 12[16.7 µM] | O=C(Nc1ccccc1F)N[C@H]1CC[C@H](CC(=O)N2CCCCC2)O[C@@H]1CO
-24 | -15[16.7 µM] | C[C@H](O)C#Cc1cnc2c(c1)C(=O)N([C@@H](C)CO)C[C@@H](C)[C@H](CN(C)Cc1ccccn1)O2
37 | 39[16.7 µM] | CCC(=O)N(C)C[C@H]1Oc2cc(C#Cc3cccnc3)ccc2S(=O)(=O)N([C@@H](C)CO)C[C@@H]1C

Further entries.
Yeast UUG start | HIV Env fusion | Structure
19 | -1[16.7 µM] | C[C@@H]1CN([C@@H](C)CO)C(=O)c2cc(NC(=O)Nc3ccccc3)ccc2O[C@@H](C)CCCCO[C@@H]1CN(C)CC1CCCCC1
16 | 18[16.7 µM] | CNC[C@H]1OCCCC[C@@H](C)Oc2ccc(NC(=O)Nc3ccc(OC)cc3)cc2C(=O)N([C@@H](C)CO)C[C@H]1C
1 | 6[16.7 µM] | COc1cccc(-c2cnc3c(c2)C(=O)N([C@H](C)CO)C[C@H](C)[C@@H](CN(C)Cc2ccc(F)cc2)O3)c1
7 | 10[16.7 µM] | C[C@H]1CCCCO[C@H](CN(C)C(=O)CCC(F)(F)F)[C@@H](C)CN([C@@H](C)CO)C(=O)c2cc(NC(=O)CCCN(C)C)ccc2O1
-5 | 10[16.7 µM] | CCCC#Cc1ccc2c(c1)O[C@H](CN(C)Cc1ccccn1)[C@H](C)CN([C@H](C)CO)S2(=O)=O
5 | 15[16.7 µM] | CCCC#Cc1ccc2c(c1)O[C@@H](CN(C)C)[C@H](C)CN([C@H](C)CO)S2(=O)=O
-3 | -14[16.7 µM] | CCC(=O)N(C)C[C@H]1Oc2cc(C#CC(C)(C)O)ccc2S(=O)(=O)N([C@@H](C)CO)C[C@H]1C
-7 | -6[16.7 µM] | C[C@@H]1CN([C@@H](C)CO)C(=O)c2cc(NS(=O)(=O)c3ccc(Cl)cc3)ccc2O[C@@H]1CN(C)S(C)(=O)=O
7 | 3[16.7 µM] | CNC[C@H]1Oc2ccc(NC(=O)NC3CCCCC3)cc2CC(=O)N([C@H](C)CO)C[C@H]1C
9 | 11[16.7 µM] | C[C@H]1CCCCO[C@@H](CN(C)S(=O)(=O)c2ccc(Cl)cc2)[C@@H](C)CN([C@@H](C)CO)C(=O)c2cc(NS(=O)(=O)c3ccc(F)cc3)ccc2O1
24 | -10[16.7 µM] | C/C=C/c1cnc2c(c1)C(=O)N([C@H](C)CO)C[C@H](C)[C@@H](CN(C)C(=O)Nc1ccc(OC)cc1)O2
12 | 7[16.7 µM] | C[C@H](CO)N1C[C@H](C)[C@H](CN(C)C(=O)c2ccc(F)cc2)Oc2ncc(C3=CCCCC3)cc2C1=O
-6 | -30[16.7 µM] | C[C@@H]1CN([C@@H](C)CO)S(=O)(=O)c2ccc(C#Cc3ccccc3)cc2O[C@H]1CN(C)C(=O)c1ccccn1
35 | 5[16.7 µM] | CO[C@H]1CN(C)C(=O)c2cc(NC(=O)Cc3ccccc3)ccc2OC[C@@H](C)N(CC2CC2)C[C@@H]1C
15 | 12[16.7 µM] | C[C@@H]1CN([C@@H](C)CO)C(=O)Cc2cc(NC(=O)C3CCCCC3)ccc2O[C@H]1CN(C)C(=O)Nc1ccc(F)cc1

Next part:
Yeast UUG start | HIV Env fusion | Structure
10 | 28[16.7 µM] | C[C@@H]1CN([C@H](C)CO)C(=O)c2cc(NC(=O)Nc3ccc(C(F)(F)F)cc3)ccc2O[C@@H]1CN(C)C(=O)Nc1ccc(C(F)(F)F)cc1
16 | 12[16.7 µM] | C[C@H]1CN([C@@H](C)CO)C(=O)Cc2cc(NC(=O)CCCCCC(=O)Nc3ccccc3N)ccc2O[C@H]1CN(C)Cc1ccc2c(c1)OCO2
21 | -38[16.7 µM] | COCC(=O)Nc1ccc2c(c1)[C@@H]1C[C@H](CC(=O)N3CCCCC3)O[C@H](CO)[C@@H]1O2
7 | -17[16.7 µM] | C[C@H](CO)N1C[C@H](C)[C@H](CN(C)Cc2ccc(C(=O)O)cc2)OCCCC[C@H](C)Oc2ccc(NS(=O)(=O)c3ccccc3)cc2C1=O
-2 | 5[16.7 µM] | CC(C)NC(=O)Nc1ccc2c(c1)CC(=O)N([C@H](C)CO)C[C@H](C)[C@H](CN(C)C(=O)Nc1cccc3ccccc13)O2
4 | -4[16.7 µM] | C[C@@H]1CN([C@@H](C)CO)C(=O)c2cccc(N(C)C)c2O[C@@H]1CN(C)C(=O)Nc1ccc2c(c1)OCO2
7 | -31[16.7 µM] | C[C@@H]1CCCCO[C@@H](CN(C)C(=O)Nc2ccccc2)[C@H](C)CN([C@@H](C)CO)C(=O)c2cc(NC(=O)CCC(F)(F)F)ccc2O1
-6 | -15[16.7 µM] | C[C@H](O)C#Cc1cnc2c(c1)C(=O)N([C@@H](C)CO)C[C@H](C)[C@@H](CN(C)C(=O)c1ccncc1)O2

Seven compounds picked at random from the list so far, as already listed:
Yeast UUG start | HIV Env fusion | Structure
10 | 28[16.7 µM] | C[C@@H]1CN([C@H](C)CO)C(=O)c2cc(NC(=O)Nc3ccc(C(F)(F)F)cc3)ccc2O[C@@H]1CN(C)C(=O)Nc1ccc(C(F)(F)F)cc1
-2 | 5[16.7 µM] | CC(C)NC(=O)Nc1ccc2c(c1)CC(=O)N([C@H](C)CO)C[C@H](C)[C@H](CN(C)C(=O)Nc1cccc3ccccc13)O2
7 | -17[16.7 µM] | C[C@H](CO)N1C[C@H](C)[C@H](CN(C)Cc2ccc(C(=O)O)cc2)OCCCC[C@H](C)Oc2ccc(NS(=O)(=O)c3ccccc3)cc2C1=O
16 | 12[16.7 µM] | C[C@H]1CN([C@@H](C)CO)C(=O)Cc2cc(NC(=O)CCCCCC(=O)Nc3ccccc3N)ccc2O[C@H]1CN(C)Cc1ccc2c(c1)OCO2
21 | -38[16.7 µM] | COCC(=O)Nc1ccc2c(c1)[C@@H]1C[C@H](CC(=O)N3CCCCC3)O[C@H](CO)[C@@H]1O2
7 | -31[16.7 µM] | C[C@@H]1CCCCO[C@@H](CN(C)C(=O)Nc2ccccc2)[C@H](C)CN([C@@H](C)CO)C(=O)c2cc(NC(=O)CCC(F)(F)F)ccc2O1
4 | -4[16.7 µM] | C[C@@H]1CN([C@@H](C)CO)C(=O)c2cccc(N(C)C)c2O[C@@H]1CN(C)C(=O)Nc1ccc2c(c1)OCO2
